Compound activity (PubChem)
HPGD inh: HPGD (human) dehydrogenase inhibition; P15428; purified HPGD, NADH fluorescence kinetic, PGE2 substrate; Potency, µM, for the others: at the top dose activity change, negative = inhibition, actives largely listed as inhibitors; 4.3% of 150,000 active; AID 894; active = well fitted inhibition curve with a large enough effect (not every such curve was filed as active); inconclusive = small, poorly fitted or top-dose-only effect, or another doubt; inactive = no such curve, though single readings can be large or run the other way;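 also: top concentration of the series not given in the record; plate controls included wells without enzyme; inactives centre near -10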
Target sequence (P15428 whole entry, looked up): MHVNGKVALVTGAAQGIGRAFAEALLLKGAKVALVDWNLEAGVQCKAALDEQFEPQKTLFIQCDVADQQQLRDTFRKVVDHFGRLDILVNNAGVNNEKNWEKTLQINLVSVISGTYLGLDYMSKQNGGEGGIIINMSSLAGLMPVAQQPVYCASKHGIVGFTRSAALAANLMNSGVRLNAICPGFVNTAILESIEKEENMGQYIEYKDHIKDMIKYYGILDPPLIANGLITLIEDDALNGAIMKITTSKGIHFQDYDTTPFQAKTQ
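NADH formation kinetics: reaction with 30 uM PGE2 and 1 mM NAD+ (final), 20 nM enzyme, Tris-HCl pH 8 with Tween 20, after 15 min compound preincubation at room temperature. Fluorescence change, last versus first of five reads.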
Numbers without * were called inactive; ? = inconclusive. % is scaled to controls: 0 for no effect and ±100 for the full control effect; potency is read from the fitted curve at half-maximal effect.

item | compound | HPGD inh
1 | Cc1nnc(NC(=O)Nc2cccc(Cl)c2)s1 | -4%
2 | CN(C)CCOc1ccccc1C(C)(C)C | -5%
3 | Cc1ccc2nsnc2c1NC(=O)c1ccccc1[N+](=O)[O-] | -16%
4 | COc1cc2c(cc1OC)CN(CC(=O)Nc1ccc(C#N)cc1)CC2 | -20%
5 | CCCCn1c(=O)c(C(=O)OCC)c(O)c2ccccc21 | -26%
6 | O=C(NNCC(O)COc1ccccc1)c1ccccc1 (configuration not stated) | -4%
7 | COc1ccc(OCC(O)Cn2c(Br)nc3c2c(=O)[nH]c(=O)n3C)cc1 (configuration not stated) | ?
8 | COc1ccc(NC(=O)C(NC(=O)CNC(C)=O)c2ccc(C)cc2)cc1 (configuration not stated) | -8%

Screen by screen, quoted from above.
HPGD inh, compounds 1 to 8 → -4%, -5%, -16%, -20%, -26%, -4%, ?, -8%

Following part:
item | compound | HPGD inh
9 | COc1ccc(NC(=O)C2CC(=O)N(c3cccc(C)c3C)C2)cc1 (configuration not stated) | -5%
10 | CN(C)c1ccc(P(=O)(OCc2ccccc2)C(O)c2cccnc2)cc1 (configuration not stated) | -14%
11 | Cc1sc(NC(=O)c2ccco2)c(C(c2ccncc2)N2CCOCC2)c1C (configuration not stated) | -9%
12 | CC(C)(Oc1ccc(-c2cccc3ccccc23)cc1)C(=O)O | -1%
13 | COC(=O)c1sc(NC(=O)c2ccoc2C)nc1C | -22%
14 | C=CCOC(=O)C1=C(C)Nc2ncnn2C1c1cccs1 (configuration not stated) | -6%
15 | COc1ccc(CNC(=O)c2csc(Cc3ccc(OC)cc3)n2)cc1 | -6%
16 | CCCC(=O)Nc1cccc(S(=O)(=O)N(C)c2ccccc2)c1 | -3%
17 | C/C(=C\C(=O)c1ccc(Br)cc1)NCc1ccc(C)cc1 | -11%
18 | CCCC(=O)n1nc(-c2ccco2)nc1N | -9%
19 | Cc1nc2c(-c3ccccc3)c(C)nn2c(C)c1CC(=O)O | -7%
20 | COc1ccc(CCC(=O)NCCc2cn3c(C)csc3n2)cc1 | -6%
21 | O=C1c2ccccc2C(=O)N1CCSc1nncs1 | -15%
22 | O=C(CSc1nnc(C2CC2)n1-c1ccccc1)NCCc1ccccc1 | -5%
23 | CC(=O)c1ccc(OCCCN2CCCCC2)cc1 | -8%
24 | N#CC(=C1CCCC1)c1nc(-c2ccc(Cl)cc2)cs1 | -17%
25 | COc1ccc(CCNC(=O)C2CCN(S(C)(=O)=O)CC2)cc1OC | 0%
26 | COc1ccc2c(c1)[nH]c1c(=O)n(CCc3cnc[nH]3)cnc12 | -12%
27 | CC1CCN(C(=S)NC2CC3CCC2C3)CC1 (configuration not stated) | -10%
28 | CCOC(=O)C1CCC(CN(Cc2ccccc2)S(=O)(=O)c2ccc([N+](=O)[O-])cc2)CC1 (configuration not stated) | -8%
29 | O=C(CN1C(=O)c2cccc3cccc1c23)NCC1CCCO1 (configuration not stated) | -16%
30 | CC1(C)CC(=O)N(CC(=O)NCc2ccccc2)c2ccccc2S1(=O)=O | -8%
31 | CCOC(=O)NC(=O)CSc1nc(-c2ccc(C)c(C)c2)cn1-c1ccccc1 | -9%
32 | C=CCSc1nc(Cc2ccc(Cl)cc2)nc2ccccc12 | -8%

Of the compounds above, these contain a cyano group.
item | compound | HPGD inh
4 | COc1cc2c(cc1OC)CN(CC(=O)Nc1ccc(C#N)cc1)CC2 | -20%
24 | N#CC(=C1CCCC1)c1nc(-c2ccc(Cl)cc2)cs1 | -17%

The list goes on.
item | compound | HPGD inh
33 | Cc1ccc(NC(=O)c2sc3nc4c(c(-c5ccco5)c3c2N)CCC4)cc1 | -24%
34 | O=C(N/N=C\c1ccc(CN(Cc2ccc(Cl)cc2)S(=O)(=O)c2ccccc2)o1)C(=O)Nc1ccc(F)cc1 | -29%
35 | Cn1c(SCC(=O)N2CCOCC2)nnc1-c1ccc(NC(=O)c2ccccc2F)cc1 | -13%
36 | Cc1ccc(SCCNC(=O)/C=C/c2ccccc2Cl)cc1 | ?
37 | O=C(COc1ccc([N+](=O)[O-])cc1)NCc1cccnc1 | -7%
38 | CCOc1cc(-c2ccccc2)nc(N)n1 | -7%
39 | CCOC(=O)c1c(NC(=O)C2c3ccccc3Oc3ccccc32)sc(C(N)=O)c1C | -10%
40 | COc1ccc(C=C(C(C)=O)C(C)=O)cc1OC | -4%

Copied from the list:
HPGD inh result of entry 33 reads -24%
HPGD inh result of entry 38 reads -7%
HPGD inh result of entry 39 reads -10%
HPGD inh result of entry 35 reads -13%
HPGD inh result of entry 37 reads -7%
HPGD inh result of entry 34 reads -29%
HPGD inh result of entry 40 reads -4%

New compounds follow:
item | compound | HPGD inh
41 | Cc1cc(=O)n2nc(N3CCC(C(=O)N4CCN(Cc5ccccc5)CC4)CC3)sc2n1 | -3%
42 | CC(O)(C#CCN1CCCCC1)c1ccccc1 (configuration not stated) | -12%
43 | CCOc1c2ccc(C(=O)NCc3ccc4c(c3)OCO4)cc2nn1CC | ?
44 | Cc1cccc(N2CCN(C(=O)c3ccc4nc[nH]c4c3)CC2)c1C | -11%
45 | CCOC(=O)Nc1ccccc1N1C(=O)c2ccccc2C1=O | -3%
46 | CCc1ccc(C(=O)NCC2COc3ccccc3O2)o1 (configuration not stated) | 18µM*
47 | CC(=O)c1ccc(OCCCC(=O)NC2CCCc3ccccc32)cc1 (configuration not stated) | -18%
48 | CCOC(=O)c1sc(N)nc1C(C)C | -26%
49 | Cc1c(Br)c([N+](=O)[O-])nn1CC(=O)NCc1ccccn1 | -13%
50 | Cc1nc2ccc(N)cc2c(=O)n1Cc1ccc(Cl)cc1 | ?
51 | O=C(N/N=C\c1ccc(-c2ccccc2[N+](=O)[O-])o1)C1COc2cc3ccccc3cc2O1 (configuration not stated) | -14%
52 | Cc1cc(CC(C)C)n(-c2nc3ccccc3c(=O)n2OCC(N)=O)n1 | -3%
53 | COC(=O)c1ccc(OCCN2C3=NCCN3c3ccccc32)cc1 | -4%
54 | CCOC(=O)NC1(C(F)(F)F)C(=O)N(Cc2ccccc2)C2=C1C(=O)CC(C)(C)C2 (configuration not stated) | -6%
55 | COc1ccc2[nH]c(=O)c(C(c3nnnn3C3CCCC3)N3CCN(Cc4ccc5c(c4)OCO5)CC3)cc2c1 (configuration not stated) | ?
56 | Nc1c(Cl)ncnc1N1CCN(c2ncnc(Cl)c2N)CC1 | -21%
57 | O=C(c1ccco1)N1CCN(CC2CC3C=CC2C3)CC1 (configuration not stated) | 2%
58 | Cc1ccnc(N(C(=O)c2cccs2)C(=O)c2cccs2)c1 | 1%
59 | Fc1ccc(NC(=S)NN2CCOCC2)cc1Cl | -2%
60 | O=C(Nc1cnc2ccccn2c1=O)c1ccc(F)cc1 | -18%
61 | COc1ccc(C2NC(=O)NC(C)=C2C(C)=O)cc1 (configuration not stated) | -13%
62 | CC(C)c1cc(C(=O)NCc2ccco2)no1 | -25%
63 | CCC(=O)NCCc1nc2cc(NC(=O)c3ccc(OC)cc3)ccc2n1C | -2%
64 | C#C[C@]1(O)CCC2C3CCC4=CC(=O)CCC4C3CC[C@@]21C (some centres not stated) | -8%

HPGD inh, what is marked active above
item | compound | HPGD inh
46 | CCc1ccc(C(=O)NCC2COc3ccccc3O2)o1 (configuration not stated) | 18µM*

Next part
item | compound | HPGD inh
65 | CCOC(=O)C1CCCN(c2c(NCc3ccco3)c(=O)c2=O)C1 (configuration not stated) | -8%
66 | O=C(c1ccccc1)N1CCCCCC1 | 4.5µM*
67 | Cc1ccc(N=Cc2c(C)[nH]n(-c3nc4ccccc4[nH]3)c2=O)cc1 | -16%
68 | N#C/C(=C\c1cccc(Cl)c1)c1n[nH]c(Cn2cncn2)n1 | ?
69 | Cc1ccccc1-c1nc(CS(=O)(=O)CC(=O)N(C)C2CCCCC2)c(C)o1 | -8%
70 | Cc1cccc(OCC(=O)NC(Cc2ccccc2)C(=O)O)c1 (configuration not stated) | -7%
71 | CC(=O)N1CCC(=O)N(C(C)C)c2ccccc21 | -6%
72 | COc1c(Cl)cnn(-c2ccc(C)cc2)c1=O | -13%
73 | Cc1ccc(S(=O)(=O)Cn2nnnc2C(c2ccccn2)N2CCN(c3ccccc3)CC2)cc1 (configuration not stated) | -15%
74 | CCOC(=O)C(CC)Sc1ncnc2nc[nH]c12 (configuration not stated) | -8%
75 | COc1ccc(NC(=S)NCc2ccco2)cc1 | -28%
76 | O=C1CCC/C(=N\NC(=O)c2ccc(COc3cccc4cccnc34)cc2)C1 | -10%
77 | COc1ccc(C(=O)CSc2nnc(CN3CCCCC3)n2-c2ccc(F)cc2)cc1 | -4%
78 | COC(=O)c1ccc(OCC(=O)c2cccc(OC)c2)cc1 | -16%
79 | COC(=O)c1c(NC(=O)COC(=O)[C@@H](NS(=O)(=O)c2ccc(C)cc2)C(C)C)sc2c1CCC2 | ?
80 | NC(=O)c1ccsc1NC(=O)c1ccc(S(=O)(=O)N2CCCc3ccccc32)cc1 | ?
81 | CN(CC(=O)NC1CCCCC1)S(=O)(=O)c1ccc(Cl)cc1 | 3%
82 | CCCOc1ccc(C(=O)N2CCN(c3ccc(NC(=O)CC)cc3Cl)CC2)cc1 | -22%
83 | O=C(O)CCSCc1ccccc1F | -16%
84 | COc1ccc(NC2=C(Cl)C(=O)N(CCc3ccccc3)C2=O)cc1 | -15%
85 | CCCC(=O)Nc1ccc2oc(-c3ccc(OC)c(Br)c3)nc2c1 | ?
86 | CCSc1ncc(/C=N/Nc2ccc(F)cc2)n1C | -14%
87 | CN(C)S(=O)(=O)c1cccc(C(=O)OCC(=O)N2c3ccccc3NC(=O)C2(C)C)c1 | -3%
88 | CCCCCC(O)/C=C/C=C\CCCCCCCC(=O)O (configuration not stated) | -2%
89 | c1ccc2c(c1)OCC(CNc1ncnc3sccc13)O2 (configuration not stated) | -30%
90 | O=C(Nc1ccc(F)cc1)c1oc2ccccc2c1NC(=O)C1CCCC1 | -6%
91 | O=C(NNC(=O)c1ccccc1-n1cccc1)c1ccccc1 | -3%
92 | Cc1ccnc2ccc(-c3nc4ccccc4o3)cc12 | ?
93 | CCCN(CCC)C(=O)c1ccccc1C(=O)N(CCC)CCC | -2%
94 | CCOC(=O)c1ccc(NC(=O)Nc2ccc3c4c(cccc24)C(=O)N3CC)cc1 | -17%
95 | COc1cc(C(=O)Nc2ccc(-n3cnnn3)c(C)c2)cc(OC)c1OC | 3%
96 | COC(=O)C1=C(C)N(C)C(C)=C(C(=O)OC)C1c1ccc(F)c(Br)c1 | -13%
97 | CCOC(=O)N1CCN(C(=O)CN(c2cccc(OC)c2)S(C)(=O)=O)CC1 | -10%
98 | O=C(CCSCCc1ccccn1)Nc1ccccn1 | -11%
99 | CC(=O)N(CCP(=O)(c1ccccc1)c1ccccc1)Cc1ccco1 | -10%
100 | COc1ccc(C(=O)NCCNC(=O)c2cc(OCC(F)(F)F)ccc2OCC(F)(F)F)cc1 | -10%
101 | CC(=O)Nc1cc(C(=O)N2CCOCC2)ccc1S(=O)(=O)c1ccc(C)cc1 | -8%
102 | O=C(NCc1ccco1)c1cc(C(=O)C2CC2)c[nH]1 | -9%
103 | CCc1nnc(NC(=O)CSc2nnc(-c3ccccc3OC)n2-c2ccccc2)s1 | -2%
104 | CC(C)OC(=O)CC(=O)CSc1nc2c(cc1C#N)CCCC2 | ?
105 | O=C(CSCCO)Nc1cccc2ccccc12 | -21%
106 | O=C(O)COc1ccccc1C1C2C(=O)N(c3ccc(F)cc3)C(=O)C2ON1c1ccccc1 (configuration not stated) | -2%
107 | COc1cccc([C@@H]2Oc3ccc(Br)cc3C[C@H]2OC(=O)N[C@H](C)C2CCCCC2)c1 | -10%
108 | CCc1nc(NCC2CCCN2CC)c2nnn(Cc3ccccc3F)c2n1 (configuration not stated) | -8%
109 | CNC(=S)N(Cc1ccc(OC)cc1)C1CC(=O)N(c2ccc(Cl)cc2)C1=O (configuration not stated) | -18%
110 | COc1ccc2c(c1OC)C(=O)N1N=C(c3ccccc3)CC21 (configuration not stated) | -10%
111 | Oc1ccccc1Oc1ncc(Br)c(N2CCOCC2)n1 | -9%
112 | COc1ccccc1N(CC(=O)Nc1cc(C)on1)S(=O)(=O)c1ccc(Cl)cc1 | 14µM*
113 | COc1ccc(NC(=O)N2CCCC(C(=O)NC(C)C)C2)cc1 (configuration not stated) | -13%
114 | Cc1cc(C(C)(C)C)cc(S(=O)(=O)Nc2ccc(O)c(C(=O)O)c2)c1C | ?
115 | CC(C)Cn1c(SCC(=O)NC2CCCc3ccccc32)nc(O)cc1=O (configuration not stated) | 0%
116 | CCn1c(SCC(=O)c2c(N)n(C)c(=O)n(C)c2=O)nnc1-c1ccccc1 | 1%
117 | O=C(NCC(c1cccnc1)N1CCN(c2ccccc2F)CC1)c1ccccc1 (configuration not stated) | -3%
118 | O=C(CSc1nnc(-c2ccncc2)o1)NC1C2CC3CC(C2)CC1C3 (configuration not stated) | -15%
119 | CCCCCCCC(=O)N/N=C(\C)c1cccnc1 | 0%
120 | CCOc1ccc2nc(Cl)c(/C=C/C(=O)c3ccco3)cc2c1 | -25%

More records
item | compound | HPGD inh
121 | CC1CCCCC1NC(=O)COC(=O)/C=C/c1ccc2c(c1)OCO2 (configuration not stated) | ?
122 | O=S(=O)(Nc1cccc2c1CCCC2)c1ccc(Cl)cc1 | -22%
123 | COC(=O)C12CC3CC(C1)CC(n1cnc(Cl)n1)(C3)C2 | -5%
124 | O=C(CSc1nnc(Cc2cccs2)n1Cc1ccco1)Nc1cccc(Cl)c1 | -9%
125 | CCN(CC)S(=O)(=O)c1cccc(-c2nnc(SCC(=O)NC3CCCCCC3)n2N)c1 | 3%
126 | COC(=O)c1sc(NC(=O)COc2cccc3ccccc23)nc1C | -9%

This is a subset; rates above refer to the full screens.
